Bioassay records deposited in PubChem by Broad Institute.
NOMO-1 viab: NOMO-1 AML cell viability reduction, primary screen, STK33 inhibitor project, CellTiter-Glo luminescence; NOMO-1 AML viability, 72 h; inhibition, % (test concentration not listed); 7.5% of 37,000 active; AID 2330, 2010;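 active = most replicates above 80%; inconclusive = exactly half above 80%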;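 also: wells of about 30 µL received 25 nL stock; 0% = median of vehicle wells and 100% = reference inhibitor level; the first replicate is given; inactives centre near 10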
An asterisk follows results filed as active; ? = inconclusive. Only part of the results is shown (hit frequency here may not be typical).

SMILES	NOMO-1 viab
C[C@@H]1CN([C@@H](C)CO)C(=O)Cc2cc(N(C)C)ccc2O[C@@H]1CN(C)Cc1ccccc1	122*
Cc1cc(C)c(OCC(=O)Nc2c[nH]c(=O)[nH]c2=O)cc1C	-3
COc1ccc(S(=O)(=O)N(C)C[C@@H]2Oc3ccc(NS(=O)(=O)c4ccc(Cl)cc4)cc3CC(=O)N([C@H](C)CO)C[C@@H]2C)cc1	55
C[C@@H]1CN([C@H](C)CO)C(=O)c2cc(NC(=O)CCCCCC(=O)Nc3ccccc3N)ccc2O[C@H]1CN(C)C(=O)Nc1ccc2c(c1)OCO2	-22
C[C@@H]1CN([C@H](C)CO)C(=O)Cc2cc(NC(=O)CCC(F)(F)F)ccc2O[C@@H]1CN(C)Cc1ccc(Cl)c(Cl)c1	116*
COc1ccc([N+](=O)[O-])cc1NC(=O)CN(C)S(=O)(=O)c1ccc(Br)cc1	-6
C[C@H](CO)N1C[C@H](C)[C@@H](CN(C)S(=O)(=O)c2ccccc2)Oc2ccc(NC(=O)CCC(F)(F)F)cc2C1=O	7
N#CCCN(Cc1cccnc1)C(=S)NC1CC2C=CC1C2 (configuration not stated)	3
Cc1ccc(S(=O)(=O)NC(C(=O)Oc2cc3oc(=O)cc(-c4ccccc4)c3cc2Cl)C(C)C)cc1 (configuration not stated)	20
Cc1ccc(CN2C(=O)C(O)(CC(=O)c3cccc(N)c3)c3cc(Cl)ccc32)cc1 (configuration not stated)	133*
C/C(C=Nc1c(C)n(C)n(-c2ccccc2)c1=O)=C/c1ccccc1	4
C[C@H]1CN([C@@H](C)CO)C(=O)c2cc(NC(=O)CCC(F)(F)F)ccc2O[C@H]1CN(C)S(=O)(=O)c1cn(C)cn1	-4
COc1ccc(NC(=O)Nc2ccc3c(c2)CC(=O)N([C@H](C)CO)C[C@H](C)[C@H](CN(C)S(=O)(=O)c2cn(C)cn2)O3)cc1	-12
Cc1ccccc1NC(=O)CSc1nnc(-c2cccc(Cl)c2)n1C	-6
NC(=O)CSc1nc2c(c(=O)n1-c1ccccc1)C1=C(CCC1)C2	47
COc1ccc(CN(C)C[C@H]2Oc3ccc(NC(=O)NC4CCCCC4)cc3C(=O)N([C@H](C)CO)C[C@H]2C)cc1	25
Cc1ccc(S(=O)(=O)Nc2ccc3c(c2)CC(=O)N([C@H](C)CO)C[C@@H](C)[C@@H](CN(C)S(=O)(=O)c2cn(C)cn2)O3)cc1	22
Cc1ccc(S(=O)(=O)N(C)CC(=O)Nc2cccc(C(F)(F)F)c2)cc1	-3
C[C@@H]1CN([C@@H](C)CO)C(=O)c2cccc(NS(=O)(=O)c3ccc(Cl)cc3)c2O[C@@H]1CN(C)Cc1ccc(C(=O)Nc2ccccc2N)cc1	128*
CC(NS(=O)(=O)c1ccc(F)cc1)C(=O)Nc1ccc2c(c1)OCCO2 (configuration not stated)	-7
COc1ccc(CN(C)C[C@H]2Oc3ccc(NC(=O)Nc4cccc5ccccc45)cc3C(=O)N([C@H](C)CO)C[C@@H]2C)cc1	24
COc1ccccc1-c1nc(SCC(=O)N2CCOCC2)n[nH]1	-8
C[C@H]1CN([C@@H](C)CO)C(=O)c2cccc(NC(=O)NC3CCCCC3)c2O[C@H]1CN(C)C(=O)Nc1ccc(F)cc1	6
COC(=O)c1c(NC(=O)C2CC(=O)NN2Cc2ccccc2)sc2c1CCC2 (configuration not stated)	44
CNC[C@H]1Oc2c(NC(=O)Nc3ccc4c(c3)OCO4)cccc2C(=O)N([C@@H](C)CO)C[C@H]1C	7
C[C@@H]1CN([C@H](C)CO)C(=O)c2cccc(NC(=O)C3CCOCC3)c2O[C@@H]1CN(C)S(C)(=O)=O	17
COc1ccccc1N(CC(=O)Nc1ccccc1Cl)S(C)(=O)=O	16
C[C@H]1CN([C@@H](C)CO)C(=O)c2cccc(NC(=O)Nc3ccccc3)c2O[C@@H]1CN(C)Cc1ccc(Cl)c(Cl)c1	64
C[C@@H]1CN([C@@H](C)CO)C(=O)c2cccc(NC(=O)C3CCOCC3)c2O[C@@H]1CN(C)S(=O)(=O)c1cccs1	8
COc1ccc(N(CC(=O)Nc2cc(Cl)ccc2OC)S(C)(=O)=O)cc1	42

Part of the list above in order of count of non-hydrogen atoms, descending.
SMILES	NOMO-1 viab
C[C@@H]1CN([C@@H](C)CO)C(=O)c2cccc(NC(=O)C3CCOCC3)c2O[C@@H]1CN(C)S(=O)(=O)c1cccs1	8
COC(=O)c1c(NC(=O)C2CC(=O)NN2Cc2ccccc2)sc2c1CCC2 (configuration not stated)	44
COc1ccc(N(CC(=O)Nc2cc(Cl)ccc2OC)S(C)(=O)=O)cc1	42

Later entries.
SMILES	NOMO-1 viab
Cc1noc(C)c1S(=O)(=O)Nc1ccc2c(c1)CC(=O)N([C@H](C)CO)C[C@@H](C)[C@H](CN(C)Cc1ccc(C(=O)Nc3ccccc3N)cc1)O2	31
Cc1noc(C)c1NC(=O)N(C)C[C@@H]1Oc2c(NC(=O)c3ccc(-c4nccs4)cc3)cccc2C(=O)N([C@H](C)CO)C[C@@H]1C	18
CC(C)(O[C@@H]1O[C@H](CO)[C@@H](O)[C@H](O)[C@H]1O)[C@@H]1Oc2cc3oc(=O)ccc3cc2[C@H]1O	7
Cc1noc(C)c1S(=O)(=O)Nc1ccc2c(c1)CC(=O)N([C@H](C)CO)C[C@@H](C)[C@H](CN(C)Cc1ccccc1)O2	18
Cc1noc(C)c1NC(=O)N(C)C[C@@H]1Oc2ccc(NC(=O)Nc3ccc4c(c3)OCO4)cc2CC(=O)N([C@H](C)CO)C[C@@H]1C	-9
Cc1noc(C)c1NC(=O)N(C)C[C@H]1Oc2ccc(NC(=O)Nc3ccc4c(c3)OCO4)cc2C(=O)N([C@H](C)CO)C[C@H]1C	6
C[C@@H]1CCCCO[C@@H](CN(C)Cc2ccc(C(=O)O)cc2)[C@@H](C)CN([C@H](C)CO)C(=O)c2cc(NC(=O)C3CCCCC3)ccc2O1	11
C[C@@H]1CCCCO[C@@H](CN(C)S(C)(=O)=O)[C@@H](C)CN([C@H](C)CO)C(=O)c2cc(NC(=O)Nc3ccc(C(F)(F)F)cc3)ccc2O1	21
C[C@H]1CN([C@@H](C)CO)C(=O)c2cccc(NC(=O)Nc3ccc(F)cc3)c2O[C@@H]1CN(C)S(=O)(=O)c1ccccc1	16
CC(C)C(=O)Nc1ccccc1C(=O)OCc1cccc([N+](=O)[O-])c1	11
OCCN(CCO)c1nc(-c2ccccc2)nc2sc(-c3ccccc3)cc12	?
COc1ccc(S(=O)(=O)N(C)C[C@H]2Oc3ccc(NS(=O)(=O)c4cccs4)cc3C(=O)N([C@@H](C)CO)C[C@H]2C)cc1	14
C[C@@H]1CN([C@@H](C)CO)C(=O)c2cc(NC(=O)Cc3cn(C)c4ccccc34)ccc2O[C@H]1CN(C)Cc1ccc(C(F)(F)F)cc1	91*
COc1ccc(S(=O)(=O)N(C)C[C@H]2Oc3c(NS(=O)(=O)c4c(C)noc4C)cccc3C(=O)N([C@H](C)CO)C[C@H]2C)cc1	32
COc1ccccc1NC(=O)Cn1nnc(-c2ccc(C(F)(F)F)cc2)n1	0
C[C@H]1CN([C@@H](C)CO)C(=O)Cc2cc(NC(=O)C3CC3)ccc2O[C@H]1CN(C)C(=O)NC1CCCCC1	5
C[C@H](CO)N1C[C@H](C)[C@H](CN(C)Cc2ccc(C(F)(F)F)cc2)Oc2c(NC(=O)Nc3ccc4c(c3)OCO4)cccc2C1=O	?
C[C@@H]1CN([C@H](C)CO)C(=O)Cc2cc(NS(=O)(=O)c3cn(C)cn3)ccc2O[C@@H]1CN(C)Cc1ccc(Cl)c(Cl)c1	8
Nc1ncnc(Nc2ccccn2)c1[N+](=O)[O-]	25
Cc1noc(C)c1NC(=O)Nc1ccc2c(c1)C(=O)N([C@H](C)CO)C[C@H](C)[C@H](CN(C)C(=O)NC1CCCCC1)OCCCC[C@@H](C)O2	11
CC(C)NC(=O)N(C)C[C@@H]1Oc2ccc(NC(=O)C3CC3)cc2C(=O)N([C@@H](C)CO)C[C@H]1C	-5
C[C@@H]1CN([C@@H](C)CO)C(=O)c2cccc(NC(=O)Nc3ccccc3)c2O[C@@H]1CN(C)Cc1ccc(Oc2ccccc2)cc1	62
COc1ccc(NC(=O)N(C)C[C@H]2Oc3c(NC(=O)Nc4ccc5c(c4)OCO5)cccc3C(=O)N([C@H](C)CO)C[C@H]2C)cc1	4
C[C@H]1CN([C@@H](C)CO)C(=O)c2cc(NS(=O)(=O)c3cccs3)ccc2O[C@H]1CN(C)C	-10
Cc1ccc(S(=O)(=O)Nc2ccc3c(c2)CC(=O)N([C@@H](C)CO)C[C@H](C)[C@@H](CN(C)S(=O)(=O)c2cccs2)O3)cc1	19
S=c1[nH]c(=S)c2cnc(N3CCOCC3)nc2[nH]1	-7
COC(=O)c1ccc(NC(=O)CCC(=O)c2ccc(OC)cc2)cc1	-6
C[C@H]1CN([C@@H](C)CO)C(=O)Cc2cc(NC(=O)C3CC3)ccc2O[C@@H]1CN(C)S(=O)(=O)c1ccc(Cl)cc1	9
COc1ccc(Cl)cc1N(CC(=O)Nc1cc(Cl)cc(Cl)c1)S(C)(=O)=O	42
OC(COc1ccc(Cl)cc1)Cn1cnc(-c2ccccc2)c1 (configuration not stated)	-1

Compounds above with an NH in an aromatic ring (3):
SMILES	NOMO-1 viab
Cc1cc(C)c(OCC(=O)Nc2c[nH]c(=O)[nH]c2=O)cc1C	-3
COc1ccccc1-c1nc(SCC(=O)N2CCOCC2)n[nH]1	-8
S=c1[nH]c(=S)c2cnc(N3CCOCC3)nc2[nH]1	-7

Further results
SMILES	NOMO-1 viab
C[C@H](CO)N1C[C@H](C)[C@H](CN(C)S(=O)(=O)c2ccccc2)Oc2ccc(NS(C)(=O)=O)cc2C1=O	1
C[C@@H]1CN([C@@H](C)CO)C(=O)c2cc(NS(=O)(=O)c3ccc(F)cc3)ccc2O[C@@H]1CN(C)CC1CCCCC1	-7
CC(CCC(=O)Nc1ccccc1Cl)C(=O)O (configuration not stated)	-2
CCn1c(SCC(=O)Nc2ccccc2C)nc2ccccc2c1=O	-7
COC(=O)CCc1[nH]c2ccccc2c1Sc1ccccc1	140*
C[C@H](CO)N1C[C@H](C)[C@@H](CN(C)S(C)(=O)=O)Oc2c(NC(=O)c3cnccn3)cccc2C1=O	6
CC(=O)N1CCc2cc(NC(=S)NCc3cccs3)ccc21	8
C[C@H]1CN([C@@H](C)CO)C(=O)Cc2cc(NC(=O)Nc3ccccc3)ccc2O[C@H]1CN(C)C(=O)NC1CCCCC1	1
C[C@@H]1CN([C@H](C)CO)C(=O)Cc2cc(NC(=O)CCN3CCOCC3)ccc2O[C@@H]1CN(C)S(=O)(=O)c1cn(C)cn1	-21
C=C1C(=O)O[C@@H]2/C=C(/CO[C@@H]3O[C@H](CO)[C@@H](O)[C@H](O)[C@H]3O)CC/C=C3\C[C@H](OC3=O)[C@@H]12	-7

The final four entries of the section above come first, to join the parts:
SMILES	NOMO-1 viab
CC(=O)N1CCc2cc(NC(=S)NCc3cccs3)ccc21	8
C[C@H]1CN([C@@H](C)CO)C(=O)Cc2cc(NC(=O)Nc3ccccc3)ccc2O[C@H]1CN(C)C(=O)NC1CCCCC1	1
C[C@@H]1CN([C@H](C)CO)C(=O)Cc2cc(NC(=O)CCN3CCOCC3)ccc2O[C@@H]1CN(C)S(=O)(=O)c1cn(C)cn1	-21
C=C1C(=O)O[C@@H]2/C=C(/CO[C@@H]3O[C@H](CO)[C@@H](O)[C@H](O)[C@H]3O)CC/C=C3\C[C@H](OC3=O)[C@@H]12	-7
N#C/C(=C\c1cc(Cl)cc(Cl)c1)c1cccnc1	83*
CCc1nc(SCC(=O)Nc2ccc(C)cc2)n[nH]1	20
COc1cccc(N(CC(=O)Nc2ccc(F)cc2F)S(C)(=O)=O)c1	-15
CNC[C@H]1Oc2ccc(NS(=O)(=O)c3cn(C)cn3)cc2C(=O)N([C@@H](C)CO)C[C@H]1C	-2
C[C@H](CO)N1C[C@H](C)[C@H](CN(C)S(=O)(=O)c2cn(C)cn2)Oc2ccc(NC(=O)NC3CCCCC3)cc2C1=O	7
CC1CCc2c(sc(NC(=O)c3cc(-c4cccnc4)nc4ccc(Cl)cc34)c2C(N)=O)C1 (configuration not stated)	29
Cc1nn(-c2ccccc2)c2c1C(C(F)(F)F)(C(F)(F)F)N=C(N(C)C)O2	71
C=C1C(=O)O[C@@H]2[C@H]3C(=C)[C@@H](O[C@@H]4O[C@H](CO)[C@@H](O)[C@H](O)[C@H]4O)C[C@H]3C(=C)C[C@@H](O)[C@@H]12	7
N#Cc1c(C(F)(F)F)cc(-c2cccs2)nc1SCC(O)COc1ccc(Cl)cc1 (configuration not stated)	58
CNC[C@@H]1Oc2ccc(NS(=O)(=O)c3ccc(F)cc3)cc2C(=O)N([C@@H](C)CO)C[C@@H]1C	10
O=S(=O)(Nc1nccs1)c1ccc(NS(=O)(=O)c2cc(Cl)ccc2Cl)cc1	-12
C[C@@H]1CN([C@@H](C)CO)C(=O)c2cc(NS(=O)(=O)c3ccc(F)cc3)ccc2O[C@H]1CN(C)Cc1ccncc1	8
COc1cc(C2OCC3C(c4ccc5c(c4)OCO5)OC(=O)C23)ccc1O (configuration not stated)	20
COc1ccc(S(=O)(=O)Nc2ccc3c(c2)C(=O)N([C@H](C)CO)C[C@H](C)[C@@H](CN(C)Cc2ccc(C(F)(F)F)cc2)O3)cc1	32
C=C1C2CCC3[C@]4(C)CCC[C@@](C)(C(=O)O)C4CC[C@]3(C2)[C@H]1OC(C)=O (some centres not stated)	32
C[C@@H]1CCCCO[C@@H](CN(C)S(=O)(=O)c2cccs2)[C@@H](C)CN([C@H](C)CO)C(=O)c2cc(NC(=O)NC3CCCCC3)ccc2O1	8
